Source: PubChem
Vaccinia Venus: vaccinia inhibition (Venus reporter). Vaccinia virus Venus reporter expression, fluorescence. Potency, µM (titrated, usually from 36.5 µM), for the others: top-dose activity change, negative = inhibition, actives largely listed as inhibitors. 330,000 compounds, 0.46% hits. AID 720580; active means well fitted inhibition curve with a large enough effect; inconclusive means small, poorly fitted or top-dose-only effect; inactive means no such curve, though single readings can be large or run the other way; tested in A549 cells; note: nearly all actives have a fitted effect of over 30% in size; inactives centre near -10
Vaccinia mCherry: inhibitors of vaccinia virus infection (mCherry reporter signal). Vaccinia virus mCherry reporter infection, fluorescence; about a quarter of the inactives have no number. 310,000 compounds, 0.63% hits. Potency, µM (titrated, usually from 36.5 µM), for inactives: at the top dose activity change, negative = inhibition, most hits filed as inhibitors. AID 720579; active = well fitted inhibition curve with a large enough effect; inconclusive = small, poorly fitted or top-dose-only effect; inactive = no such curve, though single readings can be large or run the other way; tested in A549 cells; note: nearly all actives have a fitted effect of over 35% in size; inactives centre near -10
Starred values were filed as active, the others as inactive; i = inactive; ? = inconclusive; nt = no result given; & = joins results of further samples; [ ] = another dose, or the depositor's remark. % is set by controls: 0 for no effect and ±100 for the full control effect; potency is the fitted concentration of half-maximal effect.

| SMILES | Vaccinia Venus | Vaccinia mCherry |
| --- | --- | --- |
| Cc1cc(C)c(OCC(=O)NCC2CCCO2)c(C)c1 (configuration not stated) | -5.1% | -6.4% |
| OC(c1ccccc1)(c1nc(-c2ccc(F)c(Cl)c2)cs1)C(F)(F)F (configuration not stated) | ? | -24.7% |
| COC(=O)c1ccccc1NC(=O)c1nn(-c2ccc(OC)cc2)c(=O)c2c1c1ccccc1n2C | -2.1% | -11.2% |
| CCCCC(=O)Nc1ccc2oc(-c3cccnc3)nc2c1 | -10.3% | nt |
| N#Cc1ccccc1OCC(=O)NC1CCCCC1 | -9.2% | -21.2% |
| NC(=O)c1cc(C(=O)c2ccc(Cl)cc2)c[nH]1 | -5.3% | -5.4% |
| Cc1ccc(-c2c[n+](Cc3ccc(Cl)c(Cl)c3)c3n2CCC3)cc1 | -22.9% | -23.2% |
| C#CCN(C[C@H]1[C@H](OC(=O)Nc2c(C)noc2C)[C@H](OC(=O)Nc2c(C)noc2C)C[C@@H](C(=O)OC)[C@H]1C(=O)OC)S(=O)(=O)c1ccc(C)cc1 | -15.5% | -3.5% |
| O=S(=O)(c1ccc2c(c1)OCCO2)N1CCN(Cc2ccccc2)CC1 | -23.9% | nt |
| O=C(O)C1=NN(c2cc(Cl)c(S(=O)(=O)O)cc2Cl)C(=O)C1 | -20.8% | i |
| CCOC(=O)c1c(-c2cccc([N+](=O)[O-])c2)csc1NC(=O)CCCOc1ccccc1 | -11.4% | -15.9% |
| Cc1cccc(C(=O)OC(C)CN2CCOCC2)c1 (configuration not stated) | 2.8% | 1.3% |
| Cc1cc(C(=O)NNC(=S)NCC(C)C)cs1 | -5.3% | i |
| O=C(O)c1ccc(COc2ccc3c(c2)CCC3)cc1 | -4.2% | -14.9% |
| Cc1cn2c(=O)cc(COc3ccc(NC(=O)c4cccc(F)c4)cc3)nc2s1 | -14.8% | -7.9% |
| COc1ccccc1Cn1ccn(Cc2c(F)cccc2Cl)c(=O)c1=O | -3.7% | -9.8% |
| S=C(NC1CCCC1)N1CCN(C/C=C/c2ccccc2)CC1 | -19.4% | -20.5% |
| CC(=O)Nc1ccc2c(c1)n(C)c(=O)n2C | -8.0% | -18.3% |
| CC(CC(=O)Nc1ccc(S(=O)(=O)N2CCOCC2)cc1)c1ccccc1 (configuration not stated) | 2.5% | -14.8% |
| CCSc1ncc(Cl)c(C(=O)Nc2c(C(=O)Nc3ccccc3)oc3ccccc23)n1 | -6.8% | i |
| Cc1ccc(NC(=O)Cn2nc(C)c3ccccc3c2=O)cc1 | -11.3% | -8.7%[1.46 µM] |
| COc1ccc(N(Cc2cccs2)C(=O)COc2ccc([N+](=O)[O-])cc2)cc1 | -13.0% | -3.9% |
| O=C(CN1CCCCCC1)Nc1ccc(Br)cc1Br | -10.5% | -9.6% |
| O=C(NC(=O)c1ccccc1)NC(=O)c1ccccc1 | -23.8% | nt |
| O=C(Cn1nnc(-c2ccccc2Cl)n1)N1CCN(S(=O)(=O)c2ccc(Cl)cc2)CC1 | -24.7% | ? |
| CCOc1ccccc1NC(=O)CN1C(=O)COc2ccc(S(=O)(=O)N3CCCCC3)cc21 | -5.9% | -5.7% |
| c1ccc(CCNc2ccc3nncn3n2)cc1 | -5.6% | i |
| Cc1ccc(-c2csc(=S)n2CC(=O)OCC(=O)NC(C)C(C)C)cc1 (configuration not stated) | -12.6% | i |
| COc1cc(NC(=O)Nc2nnc([C@@H]3C[C@H](O)[C@@H](CO)O3)s2)cc(OC)c1OC | 9.2% | 17.3% |
| Cc1cc(/C=N/Nc2ncnc(N)c2[N+](=O)[O-])c(C)n1-c1ccccc1 | -7.3% | ? |
| Cc1oc(-c2cccc(Br)c2)nc1Cn1c(=O)cc(-c2ccccc2)c2c(C)nn(C)c21 | 2.5% | -2.2% |
| CN1CCN(CC(O)COCc2ccc3c(c2)OCO3)CC1 (configuration not stated) | -7.6% | -10.0% |
| CCCCNC(=O)Cc1cc(=O)[nH]c(=O)[nH]1 | -2.5% | 0.7% |
| CCC/C(=C1/c2ccccc2C(=O)N1c1ccccc1)c1ccc2c(c1)OCO2 | 1.8% | i |
| O=C1c2oc3ccccc3c(=O)c2C(c2ccc(O)cc2)N1c1nccs1 (configuration not stated) | -1.5% | -8.0% |
| Cc1ccc(-c2ccc(=O)n(CCC(=O)NCCc3ccccc3)n2)cc1 | -12.4% | -17.5% |
| Cc1ccccc1NC(=O)c1cccc2c1C(=O)N(C1CCCCC1)C2 | -1.7% | -9.8% |
| Cc1ccccc1SCC(=O)OCC(=O)NCc1ccccc1 | -4.4% | i |
| CC1CCN(C(=O)COC(=O)c2c[nH]c3ccccc23)CC1 | -2.0% | i |
| COc1ccccc1NC(=O)c1ccc(SCC(=O)NCc2ccccc2Cl)c([N+](=O)[O-])c1 | -17.5% | i |
| CCOC(C(=O)OCCC[N+](C)(CC)CC)(c1ccccc1)c1ccccc1 | -20.2% | -1.4% |
| Cc1cccc(C(=O)Nc2cc3c(cc2C)n(C)c(=O)n3C)c1 | -10.4% | -2.8% |
| Cc1cc(Nc2cccc(C)c2C)n2cnnc2n1 | -11.0% | i |
| O=S(=O)(NCCS(=O)(=O)N1CCN(c2ccc(F)cc2)CC1)c1ccc(F)cc1 | -12.1% | i |
| O=S(=O)(c1cccc(-c2n[nH]c(=S)n2-c2ccccc2Cl)c1)N1CCOCC1 | -7.8% | i |
| CCOC(=O)C(C(=O)Cc1ccccc1)c1ccccc1 (configuration not stated) | 13.6% | -2.6% |
| Cn1nnnc1SCC(=O)NC1CCCC1 | 21.2% | -0.8% |
| CCCSCCCNC(=O)c1ccc(Cn2c(=O)c3cccn3c3cccnc32)cc1 | -15.6% | -19.5% |

3 records drawn at random from the list so far:
| SMILES | Vaccinia Venus | Vaccinia mCherry |
| --- | --- | --- |
| Cc1cccc(C(=O)Nc2cc3c(cc2C)n(C)c(=O)n3C)c1 | -10.4% | -2.8% |
| CCOC(C(=O)OCCC[N+](C)(CC)CC)(c1ccccc1)c1ccccc1 | -20.2% | -1.4% |
| Cn1nnnc1SCC(=O)NC1CCCC1 | 21.2% | -0.8% |

(further entries)
| SMILES | Vaccinia Venus | Vaccinia mCherry |
| --- | --- | --- |
| Cc1cc(CN2CCCC(CO)(Cc3cccc(Cl)c3)C2)n[nH]1 (configuration not stated) | -15.4% | -5.9% |
| O=C(NCCN1CCOCC1)c1cccc(Cl)c1 | -2.4% | i |
| CCOC(=O)C(C)Sc1nnc(NC(=O)c2ccc(C)c([N+](=O)[O-])c2)s1 (configuration not stated) | -16.9% | -14.4% |
| Cc1cc(=O)c2cc(C(=O)Nc3ccccc3)ccc2[nH]1 | -14.3% | -9.8% |
| COc1ccc(-c2cc(C(=O)NCCc3ccccc3)c3c(-c4ccccc4)[nH]nc3n2)cc1OC | ? | ? |
| COC(=O)c1ccc(NC(=O)C2CCN(S(=O)(=O)c3ccc4c(c3)CCCN4C(C)=O)CC2)cc1 | -7.6% | -5.2% |
| CCOc1ccc2c(c1)C(C)=CC(C)(C)N2S(=O)(=O)c1ccc(C)cc1 | -12.9% | -16.1% |
| COC(=O)c1scc(-c2ccc(C)cc2)c1S(=O)(=O)N1CCN(c2ccccc2F)CC1 | 0.5% | -15.8% |
| CC(=O)N(CCCc1ccc(C(C)(C)C)cc1)CCCN(C)C | -8.0% | i |
| COc1ccc(CNC(=O)/C=C/[C@H]2O[C@@H](n3cnc4c(NC(=O)c5ccccc5)ncnc43)[C@H](O)[C@@H]2O)cc1 | 3.4% | 31.1% |
| CC1CC(=O)Nc2ccccc2N1C(=O)CSc1ccc2ccccc2n1 (configuration not stated) | ? | ? |
| Cc1cc(C)c(C)c(S(=O)(=O)N2C(=S)NC(=O)C2CC(C)C)c1C (configuration not stated) | -30.0% | nt |
| CC(=O)NC1=NN(C(C)=O)C2(CCCCC2)S1 | -9.9% | -10.6% |
| CCOc1ccc(OCC)c(NC(=O)C2CCCN(S(=O)(=O)c3cccs3)C2)c1 (configuration not stated) | -26.7% | ? |
| COc1ccc2c(C)cc(SCC(=O)Nc3nsc(-c4ccccc4C)n3)nc2c1 | -4.8% | -20.5% |
| Cc1ccc(NC(=O)/C=C/c2ccc3c(c2)OCO3)cc1S(=O)(=O)N1CCOCC1 | -14.3% | i |
| COc1ccc(OS(=O)(=O)Cc2ccccc2)cc1 | -1.3% | 8.1% |
| CC1CCN(CCCCOc2ccc(F)cc2)CC1 | -9.9% | -16.7% |
| CC(N=c1ccccn1C(=O)Nc1ccc(F)cc1)c1ccco1 (configuration not stated) | -7.6% | i |
| COc1ccc(OC)c(CNCc2ccc3c(c2)OCO3)c1 | -9.0% | -2.7% |
| CCOC(=O)[C@@H]1[C@H]2COc3ccc(Br)cc3[C@H]2N2C(=O)N(c3ccc(F)cc3)C(=O)[C@@]12C | -8.2% | -28.3% |
| N#Cc1ccc(OCC(=O)N2CCN(S(=O)(=O)c3cccs3)CC2)cc1 | -5.0% | -9.4% |
| COc1ccc(Cl)cc1NC(=S)N(Cc1cccnc1)Cc1ccco1 | -8.4% | -23.5% |
| COc1ccc(C(=O)COC(=O)c2cc(-c3cccs3)nc3ccccc23)cc1 | -2.5% | -9.6% |
| Cc1ccc(S(=O)(=O)N2CCCC(C(=O)NC3CCCC3)C2)cc1Cl (configuration not stated) | -5.8% | -5.2% |
| Cc1c(N=C2SCC(=O)N2/N=C/c2ccccc2Cl)c(=O)n(-c2ccccc2)n1C | -6.0% | -14.1% |
| CN1CCC(=O)N([C@H](CSc2ccccc2)Cc2ccccc2)CC1 | -6.4%&-12.7% | -28.7%&-22.3% |
| CN(C)c1nc(N)nc(Nc2ccccc2C#N)n1 | -11.9% | nt |
| Brc1cccc[n+]1Cc1cccc(C[n+]2ccccc2Br)c1 | -8.2% | 31.5%[activator] |
| C/C(=N\OCc1ccccc1C#N)c1cc2ccccc2o1 | -12.0% | i |
| COc1ccc(/C(C)=N/NC(=O)c2ccc(CSc3nncn3C)cc2)cc1 | 1.0% | i |
| Cn1cc(-c2ccccc2C(N)=O)c(=O)c2cc(Cl)ccc21 | -10.8% | 2.3% |
| CC(C)NC(=O)Nc1ccc2c(c1)CC(=O)N([C@@H](C)CO)C[C@H](C)[C@@H](CN(C)C(=O)NC1CCCCC1)O2 | -9.6% | i |
| O=C(NCC1CC1)c1cccc2c1C(=O)c1ccc(-c3ccc(OC(F)(F)F)cc3)cc1S2(=O)=O | ? | -16.3% |
| C=CCn1c(SCC(=O)Nc2ccc3c(c2)OCO3)nc2ccccc2c1=O | -3.5% | -12.2% |
| C(=C\c1ccncc1)/c1ccncc1 | -10.6% | 1.9% |
| Cc1nc(SCC(=O)NC(=O)NC2CCCCC2)nc(C)c1C | -1.1% | -1.6% |
| CC(=O)NC(c1ccc(Cl)cc1)c1c(O)ccc2ccc(O)cc12 (configuration not stated) | -10.1% | -18.0% |
| CC(=O)c1cc(-c2ccc(F)cc2)n(CCC(=O)Nc2nc3ccc(C)cc3s2)c1C | -23.9% | -25.7% |
| O=C(Cn1cc(C(F)(F)F)cc(Cl)c1=O)NCc1ccccc1 | -10.4% | -9.1% |
| CCC1=C(OC(=O)N(CC)CC)N2C(=O)OC(=NCC3CC3)[C@]2(Cc2ccccc2)[C@H]2C1=CC[C@H]1C(=O)N(c3ccccc3)C(=O)[C@H]12 | -29.1% | ? |
| COc1ccc(C2(C)ON(c3ccccc3C(F)(F)F)C2=O)cc1 (configuration not stated) | ? | -26.3% |
| Cc1ccc(S(=O)(=O)N2C[C@@H]3[C@H]4CC[C@H](C4)[C@@H]3[C@@H](C)[C@@H]2c2cccn2Cc2ccccc2)cc1 | -21.1% | ? |
| Cc1ccccc1Cn1ccc(NC(=O)c2cnn3c(C(F)(F)F)cc(-c4ccco4)nc23)n1 | -6.1% | -15.1% |
| C#CCN(C[C@@H]1[C@@H](OC(=O)NCc2ccco2)[C@@H](OC(=O)NCc2ccco2)Cn2c(=O)ccc(=O)n21)S(=O)(=O)c1ccc(C)cc1 | 7.94µM* | ? |
| COc1nc(-c2ccccc2)ccc1-c1noc(-c2ccccc2)n1 | -24.3% | nt |
| COC(=O)Cc1ccc(NC(=S)NCc2ccccc2)cc1 | -15.3% | -24.3% |
| CCN(CC)S(=O)(=O)c1ccc(N(C)C)c(NC(=O)CSCc2c(C)noc2C)c1 | -21.3% | -19.9% |
| CCOc1ccc(NC(=O)CN2CCN(CC(=O)Nc3cc(OC)cc(OC)c3)CC2)cc1 | -14.0% | nt |
| CC1CCN(c2nc3c(c(=O)[nH]c(=O)n3C)n2CCCc2ccccc2)CC1 | ? | -13.1% |
| CN1CCCCc2c1nc1c(c2N)CCCC1 | -17.1% | i |
| CC1=C2CCCC[C@@]23C2C(=O)N(C)C(=O)[C@@H]2ON3OC1 (some centres not stated) | 2.8% | -8.1% |
| Cc1sc2ncnc(N)c2c1C | -15.2% | -15.3% |
| CC(=O)c1cccc(NC(=O)c2cc(-c3cccs3)on2)c1 | 9.4% | -13.2% |
| Cn1c(SCC(=O)OC2CCCCC2)nnc1-c1ccco1 | -4.9% | -9.2% |
| CC1CN(C(=S)Nc2ccc(Br)cc2Cl)CC(C)O1 (configuration not stated) | -19.5% | -11.3% |
| CC(=O)N1[C@H](Cc2ccccc2)C=C[C@]1(C)C(=O)NCCN1CCOCC1 | -3.6% | -17.7% |
| Cc1ccc(NC(=O)CSc2nnc(-c3ccncc3)s2)cc1 | 1.1% | 1.0% |
| CN(C)CCCCOc1cccc(Br)c1 | -18.5% | i |

No enrichment for hits. About 0.82% of those tested had a hit in this group.
